High-throughput results (PubChem)
miR-21 FLuc = miR-21 reporter, rising signal; HeLa miR-21 FLuc reporter, luciferase, 48 h; Potency, µM (doses to about 38.3 µM), inactives show top-dose reporter change, positive = more light; 340,000 tested, under 10 active; AID 2288; active = well fitted rising curve with a large enough effect; inconclusive = small, poorly fitted or top-dose-only effect; inactive = no such curve, though single readings can be large or run the other way;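 also: % of control where 0% means no effect; miR-21 action dims this reporter so a rising signal means less miR-21 action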
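HeLa cells endogenously expressing miR-21, stably carrying CMV-driven firefly luciferase with a downstream miR-21 binding site, 2000 cells/well. Titrations up to approximately 40 uM, 48 hours; luciferase luminescence read.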
GLA inh pH 4.5 = alpha-galactosidase A (human) inhibition, pH 4.5; P06280; purified enzyme, 4-MU-alpha-Gal fluorescence, pH 4.5; activity change, negative = inhibition, % at 105 µM; 230,000 tested, under 10 active; inconclusive = small, poorly fitted or top-dose-only inhibition, or a rising curve; inactive = flat fitted curve, though single readings scatter; no compound was filed as active;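 also: 0% = full activity with enzyme and -100% = basal without enzyme; dose as in the result columns while the protocol names 77 µM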
Target sequence (P06280 whole entry, looked up): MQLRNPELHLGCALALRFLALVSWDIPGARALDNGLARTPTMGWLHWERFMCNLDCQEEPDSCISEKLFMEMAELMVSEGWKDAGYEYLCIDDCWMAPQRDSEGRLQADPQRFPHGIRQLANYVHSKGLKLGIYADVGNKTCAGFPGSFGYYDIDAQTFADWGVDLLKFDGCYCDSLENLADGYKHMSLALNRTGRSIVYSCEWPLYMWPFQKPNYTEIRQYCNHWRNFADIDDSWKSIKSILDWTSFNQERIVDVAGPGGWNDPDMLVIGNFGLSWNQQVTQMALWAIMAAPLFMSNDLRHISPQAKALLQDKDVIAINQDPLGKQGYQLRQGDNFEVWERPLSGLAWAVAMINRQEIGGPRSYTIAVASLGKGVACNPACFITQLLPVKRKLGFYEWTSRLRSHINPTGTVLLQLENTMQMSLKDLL
Rango-impB inh = inhibitors of Rango-importin beta complex formation; Rango CFP/YFP FRET sensor + importin beta, 45 min; 340,000 tested, 0.031% active; Potency, µM (highest dose often 92.2 µM), without a hit: at the top dose inhibition of complex formation; Q14974; active = rising FRET ratio curve, often small or poorly fitted; inconclusive = mostly compound fluorescence or quenching in the first reads; inactive = flat curves in all reads;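 also: potency is read from the fitted curve at half-maximal effect; 0% = DMSO wells and 100% = buffer wells lacking importin beta; nearly all actives have a fitted effect of over 15% in size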
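FRET biosensor Rango (snurportin 1 IBB between N-terminal EYFP and C-terminal Cerulean), 50 nM in PBS/1 mM DTT/0.02% Tween-20/0.1% BSA, preincubated 5 min RT with compound; 0.125 microM importin beta added, 45 min RT, CFP/YFP FRET ratio read.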
Rango release inh = inhibition of RanGTP-driven Rango-importin beta dissociation. 340,000 tested, 0.071% active. O95149+P62826. Potency, µM (titrated, usually from 46.1 µM), for inactives: at the highest dose activity change, negative = inhibition. Biochemical FRET Rango-importin beta, RanGTP-induced dissociation; active means falling FRET ratio curve, often poorly fitted, with flat reads before Ran was added; inconclusive means other falling curves, or compound fluorescence or quenching; inactive means flat or rising ratio curve;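 also: potency is read from the fitted curve at half-maximal effect; % of control where 0% means no effect; nearly all actives have a fitted effect of over 45% in size; -100% = wells without RanGTP and RCC1; the record marks most hits as doubtful in a second field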
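Quantitative HTS using a FRET biosensor: 0.1 uM Rango, 0.25 uM importin beta, 0.6 uM Ran, 2 mM GTP, 0.2 uM RCC1 final, PBS with DTT, Tween-20 and BSA. Post-read taken 45 min after Ran addition.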
* marks the source's active call; other numbers are inactive results; ? = inconclusive; nt = no result given; & = joins results of further samples. Only part of the results is shown. The share of hits here may be higher or lower than overall.

miR-21 FLuc | GLA inh pH 4.5 | smiles | Rango-impB inh | Rango release inh
-5% | 1 | Cc1onc(-c2c(Cl)cccc2Cl)c1C(=O)Nc1ccc2c(c1)OCO2 | -0.8% | 2%
-2% | -11 | O=C(Nc1nnc(-c2ccc3c(c2)OCCO3)o1)c1ccc(Cc2ccccc2)cc1 | -3.1% | -14%
11% | -8 | O=C(C1CCN(S(=O)(=O)c2cccc3nsnc23)CC1)N1CCN(c2ccccc2F)CC1 | 0.2% | -4%
0% | 8 | c1ccc(NCc2nnc3n2CCCCC3)cc1 | 0.6% | -11%
-1% | -3&4 | CCOC(=O)[C@H](CCc1ccccc1)N[C@@H](C)C(=O)N1CCC[C@H]1C(=O)O | 3.4%&-4.2% | ?
0% | 0 | CC1(C(=O)Oc2ccccc2)Cc2ccccc2C(=O)O1 (configuration not stated) | -1.5% | -2%
-3% | -7 | Cc1ccc(S(=O)(=O)NC(C)C(c2cccs2)N2CCN(C)CC2)cc1 (configuration not stated) | -3.6% | 14%
-24% | 0 | COc1ccc(C(=O)Nc2ccccc2-c2ccccc2)cc1Cl | 0.6% | -17%
1% | -1 | C=CCNC(=S)NN(c1ccccc1)c1ccccc1 | 0.3% | -6%
-51% | nt | Cc1cccnc1Nc1nc(-c2ccc(F)cc2)cs1 | 1.2% | -13%
5% | 0 | CC(=O)c1c(-c2ccc(Cl)cc2Cl)noc1C | 0.3% | 7%
-2% | 6 | O=C(Nc1cccc(Oc2ccc3c(c2)C(=O)NC3=O)c1)c1ccco1 | 2.1% | -4%
nt | nt | Cc1nc(SCC(=O)Nc2cccc(S(=O)(=O)N3CCOCC3)c2)nc(C)c1C | -5.2% | 3%
-10% | 7 | Cc1nc(C)c(-c2ccnc(/N=C/NO)n2)s1 | 0.5% | 6%
-14% | -5 | O=C(CSc1nnc2ccccn12)c1ccc(Cl)cc1 | 0.2% | 13%
0% | 1 | COCc1c(C(=O)OC)nnn1-c1ccc(C(F)(F)F)cc1[N+](=O)[O-] | -1.4% | 1%
-4% | -4 | Cc1ccc(S(=O)(=O)N2CCN(Cc3cccc(C)c3O)CC2)cc1 | 1.8% | -2%
nt | -1 | CCCCN1CC[C@@H]2C=CC[C@H](C(=O)OC)[C@@H]2C1=O | 2.2% | -11%
-13% | -5 | CC(C)OC(=O)NC(c1ccccc1)C(Cl)(Cl)Cl (configuration not stated) | -0.4% | 27%
8% | -18 | CCc1ccccc1NC(=S)NC1CC2CCCC(C1)N2Cc1cccs1 (configuration not stated) | 0.9% | 2%
nt | nt | Cc1cc(=O)[nH]c(SCC(=O)N2CCCC2)n1 | 1.4% | -13%
-7% | 1 | Cc1cc(C2=NNC(=NCc3ccccc3)SC2)c(C)n1-c1c(C)n(C)n(-c2ccccc2)c1=O | -0.4% | 15%
nt | nt | C=C[C@H]1[C@H](OC2OC(CO)C(O)C(O)C2O)OC=C(C(=O)OC)[C@H]1C[C@H]1CC(=O)C[C@H](CC(=O)CCc2ccc(O)cc2)O1 (some centres not stated) | -0.7% | -7%
-47% | 0 | COC(=O)c1sccc1-c1ccc(C(=O)Nc2ccccc2)o1 | 12% | 25%
-3% | 21 | CCCCN1Cc2c(nc3cc(-c4ccco4)[nH]n3c2=O)C1=O | -2.3% | -24%
-11% | 4 | Cc1c(NC(=O)c2cc(-n3cnnc3)ccc2Cl)cccc1-c1nc2ccccc2s1 | 2.1% | 7%
-5%&-17% | nt | CN(Cc1ccco1)S(=O)(=O)c1nnc(NC(=O)c2ccccc2Cl)s1 | -5.9% | -6%
-1% | -25 | COc1ccc(CN2C(=O)NC3(CCOc4ccccc43)C2=O)cc1F (configuration not stated) | 3.2% | 8%
-7% | -2 | O=C(COc1cc(O)c2c(=O)cc(-c3ccccc3)oc2c1)c1ccccc1 | -1.0% | -9%
nt | nt | COc1ccc(N2CCN(C(=O)CSc3ncnc4scc(-c5ccc(C)cc5)c34)CC2)cc1 | -2.2% | 11%

Other structures:
miR-21 FLuc | GLA inh pH 4.5 | smiles | Rango-impB inh | Rango release inh
nt | nt | O=C(Cn1cnc2c(NCc3ccccc3)ncnc21)NCCN1CCOCC1 | 0.5% | 3%
-28% | 2 | CCCOc1ccc(CCN2CCC(=O)NC2=O)cc1C | -0.9% | 6%
-2% | -5 | CCC(C)C1NC(=S)N(C2CCCCC2)C1=O (configuration not stated) | -0.5% | 0%
-1% | 6 | CC(=O)c1cccc(N=C2NC(=O)C(CO)(CO)S2)c1 | 0.6% | -6%
-2% | nt | CCOc1ccc(N(CC(=O)Nc2ccccc2C(=O)N2CCCC2)S(C)(=O)=O)cc1 | 4.3% | 0%
-3% | -2 | Cc1ccc(NC(=O)CCCN2C(=S)NC(C)(C)CC2C)cc1 (configuration not stated) | 7.0% | -11%
-17% | -8 | COc1ccc2cnn(CCOc3cc(C)ccc3C(C)C)c(=O)c2c1OC | -0.1% | -1%
-4% | -12 | O=C(CSc1nnc(SCc2ccc(Cl)cc2)s1)N/N=C/c1c(Cl)cccc1Cl | 9.1% | 8%
nt | nt | CCN(CC(=O)Nc1c(F)cccc1F)C(=O)CCNC(=O)c1ccccc1OC | -6.2% | 4%
-10% | nt | CCOC(=O)Cn1cc(Cl)cc(C(=O)Nc2ccccc2)c1=O | -0.8% | 0%
6% | 2 | Cc1ccc(NC(=O)C2CCCN(S(=O)(=O)c3ccc4c(c3)oc(=O)n4C)C2)nc1 (configuration not stated) | 0.5% | 1%
nt | nt | N#Cc1ccccc1S(=O)(=O)N1CCN(C(=O)c2cn(-c3ccccc3)nc2-c2cccnc2)CC1 | -3.4% | -13%
-6% | nt | CCCOc1ccc(C2C(C(=O)c3cc4ccccc4o3)=C(O)C(=O)N2c2cc(C)on2)cc1OC (configuration not stated) | ? | ?
nt | nt | CCOC(=O)C1=C(C)NC(C)=C(C(=O)OCC)C1C(=O)OCC(=O)NCCc1ccccc1 | -3.7% | -14%
-2% | -17 | COc1ccccc1N1CCN(C(=O)CSc2ncnc3scc(-c4ccccc4)c23)CC1 | 0.8% | 2%
-3% | nt | O=C1N(CCCl)c2ccc(Br)cc2C12OCCO2 | -0.1% | 7%
nt | nt | COCCn1c(C)cc(/C=C(\C#N)C(=O)OC(C)C(=O)Nc2ccc(NC(C)=O)cc2)c1C (configuration not stated) | 0.1% | -3%
-1% | 4 | Cc1ccc(NC2=CC(=O)OC(C)C2)cc1 (configuration not stated) | 2.5% | -1%
-36% | nt | CCCCc1nc2cc(C(=O)NC(C)c3cnn(C)c3)ccc2o1 (configuration not stated) | 3.1% | ?
18% | nt | CC(=O)NC(c1cccc([N+](=O)[O-])c1)c1ccc2cccnc2c1O (configuration not stated) | -0.2% | 2%
0% | -4 | Cc1ccc(NC(=O)CS(=O)CC(=O)NCCCN(C)c2ccccc2)cc1 (configuration not stated) | -1.6% | 11%
-3% | 4 | O=C(Cc1cccs1)N1CCN(S(=O)(=O)c2ccc(F)cc2)CC1 | 1.2% | -10%
nt | nt | O=C(OCc1nnc(-c2ccc([N+](=O)[O-])cc2)o1)C1CCN(C(=O)c2ccc(Cl)cc2)CC1 | 1.2% | 3%
nt | nt | O=C(CSc1nc(=O)n2ccccc2n1)N1CCN(c2ccccc2)CC1 | 0.7% | 12%
-1% | 5 | CCN(CC)C(=O)Cn1cc(SCC(=O)Nc2cc(C)on2)c2ccccc21 | -0.4% | -6%
4% | 3 | CN(C)CC(O)CN1C(=O)N(CN2C(=O)N(CC(O)CN(C)C)C(=O)C2(C)C)C(C)(C)C1=O (configuration not stated) | 0.0% | 30%
-53% | -1 | COc1cc(SC)ccc1C(=O)OCC(=O)NC1CCCC1 | -1.8% | -11%
5% | nt | COc1ccc(NC(=O)CN2CCN(CC(=O)Nc3ccccc3OC)CC2)c(OC)c1 | 0.5% | 0%
nt | nt | COc1ccc(-c2nn(-c3ccccc3)cc2/C=C/C(=O)N(C)CC(=O)Nc2cccc(F)c2)cc1OC | 1.7% | -20%
-30% | -4 | O=C(Cc1noc2ccccc12)Nc1ccc2ccccc2c1 | ? | ?

(listing goes on)
miR-21 FLuc | GLA inh pH 4.5 | smiles | Rango-impB inh | Rango release inh
-18% | 1 | COc1ccc(CNC(=O)Nc2cccc3ccccc23)cc1 | 0.8% | 4%
-2% | -15 | CCOc1ccc(CN(C)CC(=O)Nc2ccc([N+](=O)[O-])cc2Cl)cc1 | 3.4% | -13%
-3% | -1 | CCc1nnc(NC(=O)CN2CCN(C(=O)c3ccccc3)CC2)s1 | 0.6% | -2%
-1% | nt | CCc1ccccc1NC(=O)C1CC(c2ccc(OC)cc2)=NO1 (configuration not stated) | -1.4% | 2%
-72% | -6 | COC(=O)c1c(-c2cccnc2)csc1NC(=O)c1cc(C)on1 | 2.9% | -15%
-49% | 1 | Cc1cc(NC(=O)CSc2ccc(-c3nc4cc(C)c(C)cc4[nH]3)cn2)no1 | -2.0% | ?
1% | nt | Cn1cc(Cl)c(C(=O)OCC(=O)c2ccccc2)n1 | -0.1% | 13%
nt | nt | CC(=O)NC(C)c1cc(Cl)c2ccccc2c1O (configuration not stated) | -0.1% | 33%
nt | nt | CSc1ncccc1C(=O)OCC(=O)c1ccc[nH]1 | -0.6% | -5%
-1% | 5 | O=C(NC1CCCC1)C1CCCN(S(=O)(=O)c2cnc[nH]2)C1 (configuration not stated) | -0.7% | 28%
-5% | nt | Cc1ccc(NC(=O)CCSc2nnc(C)o2)cc1 | 0.2% | -3%
-14% | nt | CCc1ccc(C(=O)NNC(=O)CCC2CCCCC2)cc1 | -1.7% | -1%
0% | 1 | CCOC(=O)C1CCN(Cc2cnc(NC(=O)OC)s2)CC1 | -3.0% | -7%
2% | -7 | COc1cccc(NC(=O)c2ccc(NC(=O)C3CC(=O)OC34CCCCC4)cc2)c1 (configuration not stated) | -0.5% | -8%
5% | 2 | O=C(CNCc1cccnc1)Nc1cc(C(F)(F)F)ccc1N1CCOCC1 | 1.4% | 23%
-13% | 4 | O=C1CC(c2ccc(Br)cc2)NC(c2ccc(Br)cc2)C1c1ccccc1 (configuration not stated) | nt | nt
-3% | nt | Cc1ccc2cccc(NS(=O)(=O)c3ccccc3)c2n1 | -2.1% | -7%
-1% | 8&0 | Cn1c(=O)c(C(=O)COC(=O)c2cc(-c3ccco3)nc3ccccc23)c(N)n(Cc2ccccc2)c1=O | nt | nt
-6% | -4 | CCc1ccc(CNC(=O)Cn2nc(-c3ccccc3)ccc2=O)cc1 | 2.9% | 1%
6% | 9 | CCOC(=O)C1(CC)NC(c2ccco2)C2C(=O)N(c3ccc(C)cc3)C(=O)C21 (configuration not stated) | -2.3% | -18%

Compounds above with a thiophene ring, fused or not:
miR-21 FLuc | GLA inh pH 4.5 | smiles | Rango-impB inh | Rango release inh
-3% | -7 | Cc1ccc(S(=O)(=O)NC(C)C(c2cccs2)N2CCN(C)CC2)cc1 (configuration not stated) | -3.6% | 14%
8% | -18 | CCc1ccccc1NC(=S)NC1CC2CCCC(C1)N2Cc1cccs1 (configuration not stated) | 0.9% | 2%
-47% | 0 | COC(=O)c1sccc1-c1ccc(C(=O)Nc2ccccc2)o1 | 12% | 25%
nt | nt | COc1ccc(N2CCN(C(=O)CSc3ncnc4scc(-c5ccc(C)cc5)c34)CC2)cc1 | -2.2% | 11%
-2% | -17 | COc1ccccc1N1CCN(C(=O)CSc2ncnc3scc(-c4ccccc4)c23)CC1 | 0.8% | 2%
-3% | 4 | O=C(Cc1cccs1)N1CCN(S(=O)(=O)c2ccc(F)cc2)CC1 | 1.2% | -10%
-72% | -6 | COC(=O)c1c(-c2cccnc2)csc1NC(=O)c1cc(C)on1 | 2.9% | -15%

Pulled by compound from the list above:
miR-21 FLuc | GLA inh pH 4.5 | smiles | Rango-impB inh | Rango release inh
6% | 9 | CCOC(=O)C1(CC)NC(c2ccco2)C2C(=O)N(c3ccc(C)cc3)C(=O)C21 (configuration not stated) | -2.3% | -18%
-5%&-17% | nt | CN(Cc1ccco1)S(=O)(=O)c1nnc(NC(=O)c2ccccc2Cl)s1 | -5.9% | -6%
